Screening data deposited in PubChem by several laboratories.
Myeloid diff MLP: induction of myeloid progenitor differentiation, primary screen, cell-based, flow cytometry, MLPCN library; ER-HoxA9 myeloid progenitors, lysozyme-GFP differentiation; calls only at 10 µM; 360,000 compounds, 1% hits; AID 624256, 2012;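 active = normalized GFP-positive differentiation at or above the plate's own cutoff, the solvent-only control mean plus 3 SD; inconclusive = no clear call, values can overlap the other calls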;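 also: cells exposed to compound for four days before flow analysis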
SIAH1 antagonists: Siah-1 peptide-binding antagonists, primary screen, biochemical, fluorescence polarization, rhodamine-plectin, uHTS (AID 1817). E3 ubiquitin-protein ligase SIAH1 (Homo sapiens). Siah-1 / rhodamine-plectin peptide fluorescence polarization; higher % means a stronger effect. displacement, % at 20 µM; hits with a dose series show IC50 in µM. 290,000 compounds, 0.02% hits;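 active = displacement of at least 50% at 20 µM, with a fluorescence ratio check between 0.3 and a set limit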;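 also: plate controls were Siah plus tracer with DMSO for no effect and tracer alone without Siah for full effect; strong numbers were not always called active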
human PMI inhibitors: human PMI inhibitors, high substrate, primary screen, biochemical, fluorescence intensity, high mannose 6-phosphate (AID 1220). Mannose-6-phosphate isomerase (Homo sapiens). recombinant PMI enzyme, coupled fluorescence intensity; higher % means a stronger effect. inhibition, % at 20 µM; hits with a dose series show IC50 in µM. 190,000 compounds, 0.66% hits
XIAP antagonists: XIAP antagonists, biochemical, IAP family, fluorescence polarization (AID 1018); one-dose displacement, % at 20 µM; IC50 in µM for titrated hits; XIAP BIR domain, fluorescence polarization peptide displacement; higher % means a stronger effect; E3 ubiquitin-protein ligase XIAP (Homo sapiens); 200,000 compounds, 0.007% hits; in the data active = displacement above about 50%; also: a part of the inactive calls stands beside numbers as strong as those of hits
PMI inhibitors: inhibitors of human PMI, primary screen, biochemical, fluorescence intensity, coupled assay (AID 1209); inhibition, % at 20 µM, or IC50 in µM where a hit was titrated; 190,000 compounds, 0.42% hits; purified PMI enzyme, coupled fluorescence intensity; higher % means a stronger effect;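 also: plate controls were DMSO vehicle for no effect and wells lacking substrate for full effect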
Myeloid diff MLP GFP+ MAC1+ %: also measured in Myeloid diff MLP; calls as there; GFP+ MAC1+ double positive, %; measured here: differentiation confirmed by MAC1 staining
An asterisk follows results filed as active; i = inactive; ? = inconclusive; nt = no result given; & = joins results of further samples. Rule as the data show it, unless noted: active = inhibition above about 50%; inactive = the rest. Not all compounds are listed, so the mix of outcomes need not match the whole.

SMILES	Myeloid diff MLP	Myeloid diff MLP GFP+ MAC1+ %	SIAH1 antagonists	human PMI inhibitors	XIAP antagonists	PMI inhibitors
O=C(CCC1CCCCC1)Nc1ncn[nH]1	i	0.6	9%	3%	2.3%	4%
COCCNC(=O)CCC(=O)NNc1nc2ccccc2c2nc(C)nn12	i	0.3	0%	0%	3.8%	-3%
COc1cccc(C(=O)Nc2cc3c(cc2N2CCCC2)n(C)c(=O)n3C)c1	?	nt	4%	nt	nt	nt
Cc1ccc(NC(=S)NNC(=O)c2nn(C)c(C)c2Cl)cc1	i	0.9	-5%	-12%	-5.6%	-14%
O=C(NCc1cccnc1)NC1(C(F)(F)F)Oc2ccc(Cl)cc2O1 (stereo not given)	i	2.1	0%	25%	-2.7%	22%
CC(C)(C)c1ccc(-n2ncc3c2CCCC3NC(=O)CCN2CCCC2=O)cc1 (stereo not given)	i	2.0	4%	nt	nt	nt
Cc1ccc([N+](=O)[O-])cc1N	i	0.7	-4%	-5%	-7.6%	-17%
O=C(O)c1ccccc1S	nt	nt	7%	-50%	-2.4%	-44%
NCCCC(=O)O	i	6.0	3%	-4%	-5.7%	-10%
O=C(CN1CC(c2ccccc2)CC1=O)N/N=C/c1cc(Br)ccc1O (stereo not given)	i	0.6	-9%	-3%	-2.6%	10%
c1ccc2cc(CSCc3nc4ccccc4[nH]3)ccc2c1	i	0.2	4%	8%	0.2%	8%
CNC[C@H](O)c1ccc(O)c(O)c1	i	2.1	41%	59%*	-11%	63%*

An excerpt from above in order of the human PMI inhibitors value, smallest number first.
molecule | Myeloid diff MLP GFP+ MAC1+ % | SIAH1 antagonists | human PMI inhibitors | XIAP antagonists | PMI inhibitors
O=C(CN1CC(c2ccccc2)CC1=O)N/N=C/c1cc(Br)ccc1O (stereo not given) | 0.6 | -9% | -3% | -2.6% | 10%
c1ccc2cc(CSCc3nc4ccccc4[nH]3)ccc2c1 | 0.2 | 4% | 8% | 0.2% | 8%
O=C(NCc1cccnc1)NC1(C(F)(F)F)Oc2ccc(Cl)cc2O1 (stereo not given) | 2.1 | 0% | 25% | -2.7% | 22%

Next section.
SMILES	Myeloid diff MLP	Myeloid diff MLP GFP+ MAC1+ %	SIAH1 antagonists	human PMI inhibitors	XIAP antagonists	PMI inhibitors
Nc1ccc(Nc2ccccc2)cc1	i	6.3	0%	0%	-6.2%	-1%
c1ccc(-c2n[nH]c(-c3ccccn3)n2)nc1	i	0.9&0.8	-1%&0%	32%	-1.8%	26%
COc1ccc2c(c1)c(CC(=O)O)c(C)n2C(=O)c1ccc(Cl)cc1	i	2.2	4%	3%	-9.4%	1%
CN(C)CCOC(c1ccccc1)c1ccccc1	i	1.1&1.7	0%&-4%	-6%&0%	-41%&-4.0%	-7%&3%
COc1ccc2cc([C@@H](C)C(=O)O)ccc2c1	i	1.5	nt	nt	nt	nt
COc1cccc(N2CCN(CC(=O)Nc3ccc(-n4cnnn4)cc3)CC2)c1	i	0.5	1%	-4%	-1.3%	-6%
COc1ccccc1C(=O)NNC(=S)NC(=O)c1ccco1	i	0.9	-4%	-1%	0.5%	3%
CCNC(=S)NNC(=S)NCc1ccccc1	i	0.2	-5%	4%	0.4%	8%
CCOC(=O)N1CCC(=C2c3ccc(Cl)cc3CCc3cccnc32)CC1	i	6.5	11%&-2%	10%&14%	0.8%&-6.8%	-2%&20%
CCOc1cc(/C=C/c2ccc3cccc([N+](=O)[O-])c3n2)cc(Cl)c1O	i	0.6	5%	-24%	-5.7%	-26%
Cc1cccc2nc(CSc3nc4ccccc4[nH]3)cn12	i	0.1	6%	4%	-3.0%	4%
CCn1nc(C)c(/C=N/NC(=O)c2ccc3c(c2)c(C)c(C)n3Cc2ccccc2)c1C	i	1.0	0%	-2%	-5.6%	6%
CN[C@H]1CC[C@@H](c2ccc(Cl)c(Cl)c2)c2ccccc21	i	9.9&7.3	-6%&5%	9%	-5.1%	5%
O=c1[nH]c2ccccc2n1CCCN1CCN(C(c2ccccc2)c2ccccc2)CC1	nt	nt	17%	3%	74%	19%
Cc1nc2c(=O)n(C)c(=O)n(C)c2nc1Cl	?	nt	2%	-12%	-3.6%	-13%

An excerpt from above in order of formula weight, lowest first.
SMILES	Myeloid diff MLP	Myeloid diff MLP GFP+ MAC1+ %	SIAH1 antagonists	human PMI inhibitors	XIAP antagonists	PMI inhibitors
CNC[C@H](O)c1ccc(O)c(O)c1	i	2.1	41%	59%*	-11%	63%*
Nc1ccc(Nc2ccccc2)cc1	i	6.3	0%	0%	-6.2%	-1%
c1ccc(-c2n[nH]c(-c3ccccn3)n2)nc1	i	0.9&0.8	-1%&0%	32%	-1.8%	26%
COc1ccc2cc([C@@H](C)C(=O)O)ccc2c1	i	1.5	nt	nt	nt	nt
Cc1nc2c(=O)n(C)c(=O)n(C)c2nc1Cl	?	nt	2%	-12%	-3.6%	-13%
CN(C)CCOC(c1ccccc1)c1ccccc1	i	1.1&1.7	0%&-4%	-6%&0%	-41%&-4.0%	-7%&3%
Cc1cccc2nc(CSc3nc4ccccc4[nH]3)cn12	i	0.1	6%	4%	-3.0%	4%
c1ccc2cc(CSCc3nc4ccccc4[nH]3)ccc2c1	i	0.2	4%	8%	0.2%	8%
COc1ccccc1C(=O)NNC(=S)NC(=O)c1ccco1	i	0.9	-4%	-1%	0.5%	3%
COc1ccc2c(c1)c(CC(=O)O)c(C)n2C(=O)c1ccc(Cl)cc1	i	2.2	4%	3%	-9.4%	1%
CCOc1cc(/C=C/c2ccc3cccc([N+](=O)[O-])c3n2)cc(Cl)c1O	i	0.6	5%	-24%	-5.7%	-26%
CCOC(=O)N1CCC(=C2c3ccc(Cl)cc3CCc3cccnc32)CC1	i	6.5	11%&-2%	10%&14%	0.8%&-6.8%	-2%&20%
COc1cccc(N2CCN(CC(=O)Nc3ccc(-n4cnnn4)cc3)CC2)c1	i	0.5	1%	-4%	-1.3%	-6%
O=C(CN1CC(c2ccccc2)CC1=O)N/N=C/c1cc(Br)ccc1O (stereo not given)	i	0.6	-9%	-3%	-2.6%	10%
O=c1[nH]c2ccccc2n1CCCN1CCN(C(c2ccccc2)c2ccccc2)CC1	nt	nt	17%	3%	74%	19%
CCn1nc(C)c(/C=N/NC(=O)c2ccc3c(c2)c(C)c(C)n3Cc2ccccc2)c1C	i	1.0	0%	-2%	-5.6%	6%
